Compound activity: PubChem, several laboratories
FGF22 binding: binders of human FGF22 protein, primary screen, FGF22 synaptogenesis inhibitor project, biophysical, thermal shift, single point; recombinant FGF22 thermal shift, SYPRO orange fluorescence; percent of sucrose octasulfate shift, DMSO zero; AID 651658, 2012; Fibroblast growth factor 22 (Homo sapiens), Q9HCT0; 1.5% of 340,000 active; calls only at 9.99 µM;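 active means melting point raised past a set limit in the mean and every replicate; inconclusive means no clear call; three in four hits are not shown here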
Target sequence (Q9HCT0 whole entry, looked up): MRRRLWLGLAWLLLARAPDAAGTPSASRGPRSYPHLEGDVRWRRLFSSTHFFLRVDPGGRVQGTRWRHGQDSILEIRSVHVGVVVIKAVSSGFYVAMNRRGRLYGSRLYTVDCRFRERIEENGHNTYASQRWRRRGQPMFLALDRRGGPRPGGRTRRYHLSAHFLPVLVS
MLL AF4-AF9 inh: inhibitors of AF4 peptide binding to AF9, primary screen, biochemical, AlphaScreen, biotin-AF4 peptide, FLAG-AF9, single point; Protein AF-9 (Homo sapiens), P42568; inhibition, % at 10 µM; AID 651704, 2012; 0.47% of 350,000 active;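 active means every replicate reaching a set inhibition limit, whatever the replicate mean, cut at about 25% in these data; inconclusive means mean inhibition reaches that limit but some replicates miss it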;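 further: 0% = plate neutral control median and 100% = total signal loss; the record names both 10 and 1 µM as test concentration; the first replicate is given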
Target sequence (P42568 whole entry, looked up): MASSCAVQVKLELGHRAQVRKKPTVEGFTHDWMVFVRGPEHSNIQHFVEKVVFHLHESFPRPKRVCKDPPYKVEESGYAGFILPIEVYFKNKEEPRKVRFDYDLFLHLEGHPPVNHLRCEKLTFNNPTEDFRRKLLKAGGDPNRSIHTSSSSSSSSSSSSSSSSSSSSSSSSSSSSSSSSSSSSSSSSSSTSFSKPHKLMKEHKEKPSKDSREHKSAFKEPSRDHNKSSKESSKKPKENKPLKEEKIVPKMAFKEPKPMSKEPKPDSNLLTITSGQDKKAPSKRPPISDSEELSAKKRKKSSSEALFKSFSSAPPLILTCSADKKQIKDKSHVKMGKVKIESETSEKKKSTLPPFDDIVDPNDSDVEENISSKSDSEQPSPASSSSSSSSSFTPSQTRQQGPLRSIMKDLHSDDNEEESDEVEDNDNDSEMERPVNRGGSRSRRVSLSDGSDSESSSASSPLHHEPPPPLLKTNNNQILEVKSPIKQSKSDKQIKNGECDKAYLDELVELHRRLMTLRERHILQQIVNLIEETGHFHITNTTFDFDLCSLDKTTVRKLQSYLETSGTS
ALR H2O2 inh: inhibitors of human ALR sulfhydryl oxidase, primary screen, biochemical, H2O2 detection, HRP-luminol luminescence, single point; FAD-linked sulfhydryl oxidase ALR (Homo sapiens), P55789; purified ALR, DTT oxidation; inhibition, % (test concentration not listed); 3.8% of 290,000 active; AID 485317, 2010;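 active means mean and each replicate at 75% or more; inconclusive means only one of the two met; inactive means neither met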;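 further: stock transfer was 7.5 nL into about 7.5 µL; 0% = neutral wells and 100% = wells with inactivated enzyme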
Target sequence (P55789 whole entry, looked up): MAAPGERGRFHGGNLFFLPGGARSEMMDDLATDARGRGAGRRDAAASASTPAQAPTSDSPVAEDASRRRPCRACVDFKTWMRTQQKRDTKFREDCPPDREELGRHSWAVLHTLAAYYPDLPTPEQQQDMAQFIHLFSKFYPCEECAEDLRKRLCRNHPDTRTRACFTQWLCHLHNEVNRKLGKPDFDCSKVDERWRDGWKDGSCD
Ecoli growth: E. coli growth inhibition, primary screen, OD600 | Escherichia coli growth, 23 h; stronger effect = lower value | OD600 absorbance (concentration not given with the values) | 0.21% of 330,000 active | AID 1053175, 2014;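 active means OD600 absorbance below the run mean of sample wells minus 3.6 SD, in any replicate, cut at about 0.56 in these data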;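 further: stock transfer was 300 nL into about 60 µL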
Ecoli rRNA inh: reduced GFP signal of wild-type E. coli, primary screen, bacterial rRNA inhibitor project, GFP/RFP fluorescence, OD600, single point | E. coli WT GFP vs humanized-ribosome RFP mutants, 24 h; stronger effect = lower value; DMSO median 0, no signal -100 | GFP signal change (wild-type ribosome), % (test concentration not listed) | 1.6% of 350,000 active;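 active means significant combined selectivity score with lowered wild-type GFP, culture density cut under 30%, mutant RFP and density less affected; inactive means any of these conditions unmet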; further: one replicate is shown; some compounds called inactive have numbers as strong as hits
HNF4A DNA FP: change in binding of human HNF4A to DNA, primary screen, biochemical, fluorescence polarization, FITC-DNA; Hepatocyte nuclear factor 4-alpha (Homo sapiens), P41235; 1 h; activity change, % at 10 µM; 0.3% of 360,000 active; AID 1224865, 2016; in the data active means activity change above about 30%, passing the limit was not always enough;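 further: controls were the assay level and a saturating level of protein; the project sought stronger binding though the title names inhibitors; some compounds called inactive have numbers as strong as hits; positive values seem to mean higher polarization but the record does not say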
Vif TR-FRET: inhibitors of Vif binding to APOBEC3G peptide, primary screen, biochemical, TR-FRET, GST-Vif 1-94, biotin-A3G peptide, dose response retest (AID 1117319) | Virion infectivity factor (Human immunodeficiency virus type 1 group M subtype B (isolate … | TR-FRET GST-Vif / biotin-A3G peptide binding; higher % means a stronger effect; test concentration not given here; strong numbers were not always called active | inhibition, %, or IC50 in µM where a hit was titrated | 0.57% of 260,000 active;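 active means above the screen mean plus three standard deviations and confirmed in dose response; inconclusive means results disagree or hit not tested in dose response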;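 further: Vif residues 1-94 fused to GST binding biotinylated APOBEC3G peptide 110-148; 0% = full assay without inhibitor and 100% = GST in place of GST-Vif; retest series ran down from 100 µM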
Ecoli rRNA inh OD600: further read-out of Ecoli rRNA inh, marked with its call; OD600 change, %; measured here: OD600 growth;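 optical density of the mix in the first replicate; 0 = DMSO median and -100 = no signal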
Ecoli rRNA inh RFP: recorded beside Ecoli rRNA inh, whose call it bears; RFP signal change, %; measured here: RFP humanized mutant strains;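 first replicate; 0 = DMSO median and -100 = no signal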
The depositor's hits bear a star; i = inactive; ? = inconclusive; . = no result given; & = joins results of further samples. These rows are one share of the data (hit frequency here may not be typical).

item	Molecule	FGF22 binding	MLL AF4-AF9 inh	ALR H2O2 inh	Ecoli growth	Ecoli rRNA inh
1	NC(=O)c1ncn([C@@H]2O[C@H](CNCc3ccc(OCC(=O)Nc4nccs4)cc3)[C@@H](O)[C@H]2O)n1	i	-0.8	.	.	11
2	CCCn1nc(C(=O)Nc2ccc3c(c2)OCO3)c2ccccc2c1=O	i	8.8	-5	0.68	-1
3	O=C1CC(c2ccccc2)Sc2nc3ccccc3n21 (stereo not drawn)	i	-2.1	.	0.71	18
4	CCc1ccc(/C=C2/C(=O)N(CC)C(=S)N2C)s1	i	16	-5	0.73	3
5	COc1cccc(C#Cc2cnc3c(c2)C(=O)N([C@@H](C)CO)C[C@H](C)[C@@H](CN(C)C(=O)C2CCCCC2)O3)c1	i	1.1	.	.	-1
6	Cc1csc(=O)n1CCC(=O)OCC(=O)Nc1ccc(F)c(F)c1F	i	0.1	1	0.67	10
7	Cc1ccc(S(=O)(=O)N(C)CCCC(=O)NCc2ccc3c(c2)OCO3)cc1	.	.	-9	0.76	.
8	COC(=O)COc1ccc(-c2ccc(F)cc2)cc1C=O	i	-1.5	40	0.68	-6
9	C[C@H]1CN([C@@H](C)CO)C(=O)CCCn2cc(nn2)CO[C@H]1CN(C)S(=O)(=O)c1ccc2c(c1)OCCCO2	i	-2.3	.	.	3
10	O=C(Nc1nnc([C@@H]2C[C@H](O)[C@@H](CO)O2)s1)Nc1ccccc1Oc1ccccc1	i	-6.2	.	.	-6
11	CCOC(=O)c1c(/N=C/N(C)C)sc(/C=N/Nc2ccccc2)c1-c1ccc(Cl)cc1	i	3.9	-14	.	-11
12	CN1C(C(=O)NCc2cccc(Br)c2)CC2Cn3c(nc4ccccc43)C21 (stereo not drawn)	i	3.7	.	0.68	3
13	COc1ccc(-c2ccc3n(c2=O)C[C@H]2[C@H](CO)[C@@H](C(=O)N4CCN(C)CC4)N[C@@H]32)cc1	i	?	.	.	3
14	CS(=O)(=O)N(CC(=O)NCCSc1ccc(Cl)cc1)c1ccc2c(c1)OCO2	.	.	.	0.79	.
15	COc1ccc2[nH]c3c(c2c1)CCN1C(=O)N([C@@H](C)C(=O)NCc2c(F)cccc2Cl)C(=O)[C@]31C	i	6.7	3	0.7	.

item	Ecoli rRNA inh OD600	Ecoli rRNA inh RFP	HNF4A DNA FP	Vif TR-FRET
1	10	0.3	-0.9	.
2	-10	-1.0	0.5	-7%
3	19	2.3	-1.1	-6%
4	-7	-0.1	-2.8	5%
5	-11	5.6	.	.
6	4	-0.3	0.8	1%
7	.	.	0.8	9%&2%
8	-3	0.3	3.9	.
9	-1	-0.6	.	.
10	-12	0.1	1.5	.
11	-20	-2.9	26	-6%
12	-9	-4.8	-1.9	5%
13	6	0.7	.	.
14	.	.	0.6	-5%
15	.	.	1.1	.

Other entries follow.
item	Molecule	FGF22 binding	MLL AF4-AF9 inh	ALR H2O2 inh	Ecoli growth	Ecoli rRNA inh
16	COc1ccc(NC(=O)c2ccc(F)c(F)c2)c2ccccc12	i	-0.5	.	0.67	3
17	C[C@@H]1CN([C@H](C)CO)C(=O)CCCn2cc(nn2)CO[C@H]1CN(C)C(=O)Nc1cccc(C(F)(F)F)c1	i	-0.3&-0.3	.	.	-4
18	COc1ccc(C(=O)NC2CCCc3c2cnn3-c2ccccc2F)cc1OC (stereo not drawn)	i	0.6	8	0.73	-4
19	CC(C)NC(=O)Nc1ccc2c(c1)C(=O)N([C@@H](C)CO)C[C@H](C)[C@@H](CN(C)Cc1ccncc1)OCCCC[C@H](C)O2	i	-3.0	.	.	-1
20	Cc1ccc(Cl)cc1NC(=O)CCC(=O)NCc1ccco1	i	1.3	1	0.6	0
21	O=C(NCc1ccc2c(c1)OCO2)c1cc2n(n1)C(C(F)(F)F)CC(c1ccc3c(c1)OCO3)N2 (stereo not drawn)	.	.	-1	0.71	.
22	O=C(CCc1c[nH]c2ccccc12)N1CCCCCCC1	i	1.8	56	0.7	-25
23	CC(=O)Nc1ccc(NC(=O)C(C)OC(=O)CCSc2ccccc2Cl)cc1 (stereo not drawn)	i	-1.7	-2	0.63	6
24	Cc1ccc(C(=O)COC(=O)c2ccc3c(c2)C(=O)N(c2cccc4ncccc24)C3=O)cc1C	.	.	-7	0.62	.
25	Cn1c(=O)c2sccc2n(Cc2cccc(Br)c2)c1=O	i	-3.2	6	0.66	0
26	Oc1cccc(NC(=S)Nc2ccccc2)c1	i	-57	48	0.65	0
27	CCN(C[C@H]1N[C@@](C)(C(=O)OC)[C@H]2C(=O)N(C)C(=O)[C@@H]12)C(=O)COc1ccccc1	i	-2.4	3	0.67	25
28	COCC#Cc1ccc2c(c1)O[C@@H](CN(C)Cc1cncnc1)[C@@H](C)CN([C@H](C)CO)S2(=O)=O	i	-0.1	.	.	-2
29	COc1ccc2oc(C(=O)Nc3ccc(S(=O)(=O)N(C)C4CCN(C)CC4)cc3)c(C)c2c1	i	2.5	-8	0.72	-4
30	COC(=O)CSc1nnc2n(-c3ccc(OC)cc3)c(=O)c3c4c(sc3n12)CCCCC4	.	.	-3	0.77	.

item	Ecoli rRNA inh OD600	Ecoli rRNA inh RFP	HNF4A DNA FP	Vif TR-FRET
16	8	-0.2	2.1	.
17	-5	-0.5	-1.3	-7%
18	-2	0.7	-3.4	-5%
19	8	-1.7	.	.
20	5	-0.4	0.8	4%
21	.	.	-0.2	7%&-3%
22	-28	1.3	2.9	-2%
23	13	-2.7	-0.5	.
24	.	.	0.1	22%
25	4	-4.3	1.8	-20%
26	-3	-3.8	5.7	22%
27	12	-0.6	2.6	-4%
28	9	0.5	.	.
29	-11	0.5	6.1	-15%
30	.	.	0.5	-3%

The list continues.
item	Molecule	FGF22 binding	MLL AF4-AF9 inh	ALR H2O2 inh	Ecoli growth	Ecoli rRNA inh
31	CC(NC(=O)C1(S(=O)(=O)c2ccc(Cl)cc2)CC1)c1ccccc1 (stereo not drawn)	i	-0.6	-5	0.62	-6
32	CO[C@H]1CN(C)C(=O)c2cc(NC(=O)Nc3ccccc3)ccc2OC[C@H](C)NC[C@H]1C	i	1.5	.	.	-1
33	O=c1c2oc3ccccc3c2ncn1Cc1ccccc1F	.	.	-2	0.69	.
34	O=C(O)CCCNS(=O)(=O)c1ccc(F)cc1	.	.	-42	0.69	.
35	CCc1nc(SCC(=O)Nc2ccc(OC)cc2[N+](=O)[O-])n[nH]1	i	0.6	-11	0.7	9
36	Cc1ccc2[nH]c(=O)c(CN(Cc3cccs3)Cc3nnnn3CC3CCCO3)cc2c1 (stereo not drawn)	.	.	-3	0.68	.
37	CCc1ccc(-c2nc(CSCC(=O)NC3CC3)c(C)o2)cc1	i	-2.0	70	.	-7
38	CC1(C)CCC(=O)N2CC[C@H]3C[C@H](OC(=O)Nc4ccc(Br)cc4)C[C@@H]1[C@H]32	i	-2.2	1	.	-54
39	O=C(CCc1ccccc1)NNC(=O)COc1ccc(Cl)cc1	i	-1.3	-21	0.71	18
40	CCOC(=O)/C(=C/c1ccc(N2CCC(c3ccccc3)=N2)cc1)C(C)=O	.	.	.	0.73	.
41	COc1cc(Cl)c(C)cc1NC(=O)COC(=O)CCc1nc2ccccc2c(=O)[nH]1	i	2.2	-5	0.66	9
42	COc1cc(NC(=S)N2CCN(CCO)CC2)cc(OC)c1	i	-1.4	-5	0.7	14
43	Cc1ccccc1NC(=O)c1oc(=O)c2ccccc2c1-c1ccccc1	.	.	-8	0.68	.
44	O=C(Nc1ccc(F)cc1)Nc1ccc2c(c1)[C@H]1C[C@@H](CC(=O)N3CCOCC3)O[C@@H](CO)[C@H]1O2	i	-6.8	.	.	2
45	O=C(O)C1CCN(c2ccc([N+](=O)[O-])cc2[N+](=O)[O-])CC1	i	0.4	-10	0.64	-3

item	Ecoli rRNA inh OD600	Ecoli rRNA inh RFP	HNF4A DNA FP	Vif TR-FRET
31	-7	-1.8	2.4	8%
32	-7	0.6	.	.
33	.	.	10	-1%
34	.	.	-0.3	2%
35	8	-2.9	-5.2	-1%
36	.	.	1.2	-3%&-9%
37	-11	3.0	1.5	.
38	-81	-28	3.0	.
39	9	0.5	-5.2	.
40	.	.	29	8%
41	6	5.2	2.7	1%
42	16	2.4	-2.5	-10%
43	.	.	-4.4	.
44	-6	0.7	.	.
45	1	-3.3	-2.8	0%

Some of the entries so far, with two lines to a compound:
Order of values – FGF22 binding | MLL AF4-AF9 inh | ALR H2O2 inh | Ecoli growth | Ecoli rRNA inh | Ecoli rRNA inh OD600 | Ecoli rRNA inh RFP | HNF4A DNA FP | Vif TR-FRET
31: CC(NC(=O)C1(S(=O)(=O)c2ccc(Cl)cc2)CC1)c1ccccc1 (stereo not drawn)
  i | -0.6 | -5 | 0.62 | -6 | -7 | -1.8 | 2.4 | 8%
32: CO[C@H]1CN(C)C(=O)c2cc(NC(=O)Nc3ccccc3)ccc2OC[C@H](C)NC[C@H]1C
  i | 1.5 | . | . | -1 | -7 | 0.6 | . | .
33: O=c1c2oc3ccccc3c2ncn1Cc1ccccc1F
  . | . | -2 | 0.69 | . | . | . | 10 | -1%
34: O=C(O)CCCNS(=O)(=O)c1ccc(F)cc1
  . | . | -42 | 0.69 | . | . | . | -0.3 | 2%
35: CCc1nc(SCC(=O)Nc2ccc(OC)cc2[N+](=O)[O-])n[nH]1
  i | 0.6 | -11 | 0.7 | 9 | 8 | -2.9 | -5.2 | -1%
36: Cc1ccc2[nH]c(=O)c(CN(Cc3cccs3)Cc3nnnn3CC3CCCO3)cc2c1 (stereo not drawn)
  . | . | -3 | 0.68 | . | . | . | 1.2 | -3%&-9%
37: CCc1ccc(-c2nc(CSCC(=O)NC3CC3)c(C)o2)cc1
  i | -2.0 | 70 | . | -7 | -11 | 3.0 | 1.5 | .
38: CC1(C)CCC(=O)N2CC[C@H]3C[C@H](OC(=O)Nc4ccc(Br)cc4)C[C@@H]1[C@H]32
  i | -2.2 | 1 | . | -54 | -81 | -28 | 3.0 | .

Additional records:
item	Molecule	FGF22 binding	MLL AF4-AF9 inh	ALR H2O2 inh	Ecoli growth	Ecoli rRNA inh
46	COCC#Cc1ccc2c(c1)O[C@@H](CN(C)S(=O)(=O)c1ccc(C)cc1)[C@@H](C)CN([C@@H](C)CO)S2(=O)=O	i	1.9	.	.	-1
47	OCCNCc1cccc(OCc2ccc(Cl)cc2)c1	i	2.8	-4	0.64	7
48	O=C1C(=O)N(c2ccccc2)c2ccccc21	.	.	7	0.66	.
49	CCCNC(=S)Nc1ccc(S(N)(=O)=O)cc1	i	-0.1	-13	0.73	6

item	Ecoli rRNA inh OD600	Ecoli rRNA inh RFP	HNF4A DNA FP	Vif TR-FRET
46	1	3.6	.	.
47	5	0.1	6.2	-12%
48	.	.	0.8	14%
49	13	2.3	3.2	5%
